From PubChem
Vaccinia Venus – inhibitors of vaccinia virus (Venus reporter). Vaccinia virus Venus reporter expression, fluorescence. Potency, µM (titrated, usually from 36.5 µM), for the others: at the top dose activity change, negative = inhibition, actives largely listed as inhibitors. hit rate 0.46% among 330,000; active means well fitted inhibition curve with a large enough effect; inconclusive means small, poorly fitted or top-dose-only effect; inactive means no such curve, though single readings can be large or run the other way; tested in A549 cells; also: nearly all actives have a fitted effect of over 30% in size; inactives centre near -10
VACV mCherry inh – vaccinia inhibition (mCherry reporter) | Vaccinia virus mCherry reporter infection, fluorescence; about a quarter of the inactives have no number | Potency, µM (series often up to 36.5 µM), for the others: top-dose activity change, negative = inhibition, usual class: inhibitors | AID 720579 | hit rate 0.63% among 310,000; active = well fitted inhibition curve with a large enough effect; inconclusive = small, poorly fitted or top-dose-only effect; inactive = no such curve, though single readings can be large or run the other way; tested in A549 cells; also: nearly all actives have a fitted effect of over 35% in size; inactives centre near -10
Active calls of the source: *; i = inactive; ? = inconclusive; . = no result given; & = joins results of further samples; [ ] = dose if it differs, or a comment. % is scaled to controls: 0 for no effect and ±100 for the full control effect; potency is read from the fitted curve at half-maximal effect.

SMILES	Vaccinia Venus	VACV mCherry inh
CCOC(=O)c1c(C)oc2nc(C)nc(NCc3ccc(F)cc3)c12	-12%	-9%
CN1CCN(c2ccncc2S(=O)(=O)N2CCCC2)CC1	-11%	i
O=C(Nc1cccc(Cl)c1)c1ccc2sc([C@@H]3O[C@H](CO)[C@H](O)[C@H](O)[C@H]3O)nc2c1	-6%	12%
Fc1ccc(CSc2nc3ncccc3[nH]2)cc1	-7%	.
O=C(c1ccc(Cl)cc1)N1CCCC(C(=O)N2CCCCC2)C1 (stereo not given)	7%[7.34 µM]	23%[7.34 µM]
CCC1(CC)C(=O)NC(=O)N(CCc2ccccn2)C1=O	-17%	i
COc1ccc(C)cc1NC(=O)C(OC(=O)c1cccc(S(=O)(=O)N(C)c2ccccc2)c1)c1ccccc1 (stereo not given)	-10%	-12%
O/N=C(\c1ccccn1)C1CC1c1ccccc1 (stereo not given)	3%	?
CCCCN1C(=O)c2[nH]nc(-c3ccccc3O)c2C1c1ccc(OCc2ccccc2)cc1 (stereo not given)	-5%	-3%
CN(C)CCNC(=S)Nc1ccc(Cl)cc1	-19%	-9%
COCC(=O)N(Cc1cc2cc(C)ccc2[nH]c1=O)c1cccc(C)c1C	-20%	i
Cc1ccc(CNC(=O)Cn2ccn(-c3ccc(F)cc3)c(=O)c2=O)cc1	-13%	-5%
Cc1ccc(C(CNC(=O)c2ccco2)N2CCN(C)CC2)cc1 (stereo not given)	-9%	i
Cc1c(Cl)cccc1-n1c(SCC(=O)NCc2ccccc2)nc2n[nH]c(C)c2c1=N	?	?
CCSC1=NCCN1S(=O)(=O)c1ccc(Cl)cc1	-2%	i
COc1cc(OC)nc(Oc2ccc(NC(C)=O)cc2)n1	7%	i
Cc1cccc2cc(C#N)c(NCCNC(=S)NCCCN3CCOCC3)nc12	-21%	-11%
CCN1CCN(C(=O)c2ccc(CNS(=O)(=O)c3cccc(OC)c3)cc2)CC1	-8%	-18%
CN(C)c1ccc(C2CC(c3cccc(NS(C)(=O)=O)c3)=NN2C(=O)c2ccccc2)cc1 (stereo not given)	-7%	-2%
Cc1ccc(Oc2c(C(F)(F)F)oc3c(CN4CCCCC4)c(O)ccc3c2=O)cc1	1%	5%
CC(C)N1C(=O)NC2(c3ccccc3)N(C)C(=O)N(C)C12c1ccccc1 (stereo not given)	-12%	-14%
COCCCNC(=O)c1c(N)n(-c2ccccc2)c2nc3ccccc3nc12	-10%	-30%
CCCc1nc2ccccc2c(=O)n1N	-17%	-4%
CCCCOC(=O)Nc1ccc(S(=O)(=O)Nc2ncccn2)cc1	-6%	14%
COc1ccc(NC(=O)CCCn2c(=O)c3sccc3n(Cc3ccccc3)c2=O)cc1	-19%	-9%

2 successive entries already listed, for reference:
SMILES	Vaccinia Venus	VACV mCherry inh
CCCCOC(=O)Nc1ccc(S(=O)(=O)Nc2ncccn2)cc1	-6%	14%
COc1ccc(NC(=O)CCCn2c(=O)c3sccc3n(Cc3ccccc3)c2=O)cc1	-19%	-9%

Following part.
SMILES	Vaccinia Venus	VACV mCherry inh
Cc1ccccc1CN1C[C@@H]2C[C@@H](c3cn[nH]c3-c3ccccc3)N3CCC[C@@]23C1=O	-7%	-11%
N#Cc1cc(NCC2CCCO2)c([N+](=O)[O-])cc1C#N (stereo not given)	-3%	-10%
Cc1ccc(C)c(S(=O)(=O)NCc2ccc(C(=O)N3CCN(c4ccccc4)CC3)cc2)c1	?	?
O=C(/C=C/c1ccccc1Cl)Nc1ccccc1	-21%	i
Cc1ccc(C(=O)Nc2ccc3c(c2)OCO3)o1	2%	-4%
CSc1ccc(/C=N/NC(=O)CN2CCN(Cc3ccccc3Cl)CC2)cc1	-9%	i
Cc1cccc(N2CCN(C(=O)CS(=O)(=O)c3cccc4nsnc34)CC2C)c1 (stereo not given)	2%	4%
Cc1cc(NC(=O)C2C3C(=O)N(Cc4ccc(Cl)cc4)C(C(=O)NC4CCCCC4)C34C=CC2(C)O4)no1 (stereo not given)	-18%	-5%
C=C1C(=O)C23C(O)C1CCC2[C@]12COC3(O)C(O)C1C(C)(C)CC[C@H]2O (stereo not given in full)	-24%	?
CN(Cc1ccccc1)C(=O)CCS(=O)(=O)c1cc(Br)cc2c1N(C(=O)C1CC1)CC2	-19%	-16%
COc1ccccc1N(C)S(=O)(=O)c1ccc(Cl)c(C(=O)Nc2ccncc2)c1	-15%	-21%
COc1ccccc1-c1noc(-c2ccc(N3CCOCC3)c([N+](=O)[O-])c2)n1	-12%	-8%
COc1cc(CNC(=O)C2CCC(=O)N(C3CCCCCC3)C2)cc(OC)c1 (stereo not given)	-14%	-15%
CCn1c(=O)c(C(=O)CN(C)Cc2ccc(F)cc2)c(N)n(Cc2ccccc2)c1=O	-10%	-3%
CC(C)(OC(=O)c1ccc(C#N)cc1)c1cc2ccccc2c(=O)o1	-16%	i
CC(NC(=O)CN(C)Cc1cccc(Cl)c1)c1ccccc1 (stereo not given)	-11%	-8%
CCc1cccc(C)c1NC(=O)CN1CCCN(Cc2ccc(C)cc2)S1(=O)=O	-7%	-15%
O=C(c1ccco1)N1CCN(c2cc(=O)n(-c3ccc(Cl)cc3)c(=O)[nH]2)CC1	-6%	11%
CCN(CC)CCn1c2ccccc2c2cnc(N=CN(C)C)c(C#N)c21	?	.
COc1ccc(C2=Nc3ccccc3N(C(=O)Cc3cc(OC)cc(OC)c3)C2C(=O)NC(C)(C)C)cc1 (stereo not given)	-20%	-13%
CCOC(=O)C1=C(C)N=c2s/c(=C\c3ccc(OCC(=O)O)cc3)c(=O)n2C1c1ccc(OC(C)C)cc1 (stereo not given)	-16%	-26%
COc1cc(OC)cc(-c2nc(-c3cccc(C)c3)no2)c1	4%	i
Cc1ccccc1N1CC(C(=O)Nc2ccc(S(=O)(=O)N3CCCC3)cc2)CC1=O (stereo not given)	-9%	-15%
O=c1c(Cl)c(O)c2cccc3c4ccccc4n1c23	-12%	-2%
Cc1ccc(N(CC(=O)Nc2cc(C)cc(C)c2)S(=O)(=O)c2cccc3nonc23)cc1	-6%&-17%	-9%&-1%

(continued)
SMILES	Vaccinia Venus	VACV mCherry inh
Cc1ccc(Cn2cnc3nc4c(cc3c2=O)CC(C)CC4)cc1 (stereo not given)	-13%	-12%
Cc1nn(C(=O)COc2ccc(Cl)cc2)c(C)c1Sc1ccccc1	-2%	-2%
CCC(C)(C)NC(=O)C(OC(=O)c1ccco1)c1ccccc1F (stereo not given)	-3%	-15%
CN(CC1COc2ccccc2O1)C(=O)c1cc(COc2c(F)cccc2F)on1 (stereo not given)	4%	-9%
COc1ccc(-c2[nH]ncc2CN(C)Cc2cccnc2)c(F)c1	-7%	i
Cc1ccc2nc(N3CCC(C(=O)N4CCN(c5cccc(C)c5C)CC4)CC3)[nH]c2c1	?	-29%
COC(=O)Nc1ccc(S(=O)(=O)Nc2ccccc2F)cc1	-2%	-4%
S=c1nc(-c2ccccc2)n(CCCN2CCOCC2)c2c1CCCC2	-10%	-13%
O=S(=O)(NCCc1csc(-c2ccc(F)cc2)n1)c1ccc(F)cc1F	-22%	-30%
Cc1cc(C)c(OCC(=O)OCC(=O)N2c3ccccc3CC2C)c(C)c1 (stereo not given)	-9%	-16%
CCCNc1nc(C)cc(-c2cc(-c3ccccc3)on2)n1	-18%	?
O=C(Nc1ccc(C(=O)O)cc1)/C(=C\c1ccco1)NC(=O)c1ccc(Br)cc1	-3%	-14%
COc1ccccc1C(=O)C1CCCN(C(=O)Nc2ccccc2F)C1 (stereo not given)	-17%	i
CCOC(=O)c1c(NC(=O)c2cc(Cl)ccc2Cl)sc2c1CCCC2	6%	-5%
O=C(NNC(=S)NC1CCCCC1)c1sc2ccccc2c1Cl	-23%	-24%
FC(F)(F)c1cccc(NC(=S)N2CCN(c3cccc(C(F)(F)F)c3)CC2)c1	-26%	-27%
COc1ccc(-c2nc(CSCC(=O)NCc3ccc4c(c3)OCO4)c(C)o2)cc1	-11%	-5%
COc1cccc(CNC(=O)c2cccc(S(=O)(=O)N3CCN(c4ccc(F)cc4)CC3)c2)c1	-19%	-26%
O=C(Cc1ccccc1)Nc1nnc(-c2cccc([N+](=O)[O-])c2)s1	-12%	i
Fc1ccc(-c2onc3ccc(C4OCCO4)cc23)cc1	-10%	i
O=C(NCc1ccc(F)cc1)c1ccc(CNc2c(N3CCOCC3)c(=O)c2=O)cc1	-8%	-3%
COc1cccc(N2CC(C(=O)Nc3nnc(SCC(=O)NCC4CCCO4)s3)CC2=O)c1 (stereo not given)	-3%	i
CCOC(=O)c1c(C)c(C(=O)NCc2ccc(Cl)cc2)c(C)n1CC	-17%	-23%
CCSc1nnc(-c2cc(Br)ccc2N=Cc2c(C)[nH]n(-c3ccccc3)c2=O)c(=O)[nH]1	-6%	i
COc1ccccc1OCC(=O)N/N=C1\CCc2ccccc21	0%	-12%

(listing goes on)
SMILES	Vaccinia Venus	VACV mCherry inh
CCCC(=O)Nc1ccc(C(N)=O)cc1	3%	i
COc1cccc(C(=O)NC(=S)Nc2ccc(N3CCCC3)cc2)c1	-11%	.
O=C(NCCS(=O)(=O)N1CCN(c2ccccc2)CC1)c1ccc2c(c1)OCO2	-10%	-13%
Cc1c(C(=O)N2CCOCC2)sc(NC(=O)c2ccccc2F)c1C#N	0%	-1%
Cc1ccc(C2CCN(C(=O)c3cnn(-c4ccc(C)cc4)c3C3CCN(C(=O)OC(C)(C)C)CC3)C2)cc1 (stereo not given)	-4%	i
C#CC(=O)N(c1cccc(OC)c1)C(C(=O)NC1CCCC1)c1cccs1 (stereo not given)	14µM*	20µM*
CSCC[C@@H](C(=O)NCc1cccs1)N1Cc2ccccc2C1=O	-17%	i
Nn1c(SCC(=O)Nc2ccc(N3CCOCC3)cc2)nnc1-c1ccccc1F	-19%	-6%
CCC(C)[C@H](NC(=O)c1cc2cc(Cl)ccc2n1C)C(=O)N1CCC(C(=O)O)CC1 (stereo not given in full)	-10%	i
CC1OC(Oc2ccc3ccc(=O)oc3c2-c2c(O)ccc3cc(Oc4ccc5ccc(=O)oc5c4)c(=O)oc23)C(O)C(O)C1O (stereo not given)	0%	i
COc1ccccc1CN1CCNC(=O)C1CC(=O)NCc1c(C)n[nH]c1C (stereo not given)	4%	-4%
CC(C)(C)c1ccc(NC(=O)c2cc[n+]([O-])cc2)cc1	-5%	-15%
COC(=O)c1nc2n(n1)C(c1ccc(OC)c(OC)c1OC)C1=C(CCCC1=O)N2 (stereo not given)	-18%	i[1.46 µM]
Cc1cc(=O)oc2cc(OC(C)C(=O)NCC3CCCO3)ccc12 (stereo not given)	-13%	i
O=C(CCN1C(=O)C2CCCCC2C1=O)N1CCN(S(=O)(=O)c2c(F)cccc2F)CC1 (stereo not given)	-6%	i
CCC[C@@H]1C[C@@H](C(=O)N[C@@H](C2O[C@H](SC)[C@H](O)[C@@H](O)[C@H]2O)[C@H](C)Cl)N(C)C1 (stereo not given in full)	-7%	i
OC[C@H]1O[C@@H](n2cnc3c(NCc4ccco4)ncnc32)[C@H](O)[C@@H]1O	?	10µM*
O=C(O)c1c[nH]c2ccc(S(=O)(=O)N3CCOCC3)cc12	0%	-1%
Cc1ccc(NC(=O)N(Cc2c[nH]c3ccccc23)C2CCCCCC2)cc1C	10%	?
CCc1ccc([C@@H]2C[C@H]3CN(Cc4ccccc4OC)C(=O)[C@]34CCCN24)cc1	-15%	-5%
O=C(Cn1cc2c(n1)CCCC2)NCCc1ccccc1	-5%	-2%
COc1ccc(NC2CCCN(C(=O)CCCN3CCCCC3=O)C2)cc1 (stereo not given)	-4%	?
Cc1cccc(C(=O)N2CCc3cc(CNC(=O)Cc4ccc(F)cc4)ccc32)c1	-13%	i
CCOC(=O)N1CCN(C2=Nc3cccc4cccc2c34)CC1	2%	-2%
CC(CCc1ccccc1)NC(=O)C1CCN(C(=O)c2sccc2-n2cccc2)CC1 (stereo not given)	-15%	-32%
COc1ccc(-c2cn[nH]c2-c2ccc(O)cc2O)cc1OC	?	-19%
O=C(Nc1ccccc1C(=O)OCc1cc(=O)n2c3c(sc2n1)CCCC3)c1ccc(F)cc1	-9%	i
N#CCCN(Cc1cccnc1)C(=O)Nc1ccc(Cl)c(Cl)c1	-26%	-19%
CC(=O)Nc1c(-c2ccccc2)nc2ncccn12	-5%	-14%
COc1ccc(-c2csc(N(CCCN(C)C)C(=O)c3ccccc3Cl)n2)cc1	?	11µM*

Of the compounds above, 13 have an NH in an aromatic ring.
SMILES	Vaccinia Venus	VACV mCherry inh
Fc1ccc(CSc2nc3ncccc3[nH]2)cc1	-7%	.
CCCCN1C(=O)c2[nH]nc(-c3ccccc3O)c2C1c1ccc(OCc2ccccc2)cc1 (stereo not given)	-5%	-3%
COCC(=O)N(Cc1cc2cc(C)ccc2[nH]c1=O)c1cccc(C)c1C	-20%	i
Cc1c(Cl)cccc1-n1c(SCC(=O)NCc2ccccc2)nc2n[nH]c(C)c2c1=N	?	?
Cc1ccccc1CN1C[C@@H]2C[C@@H](c3cn[nH]c3-c3ccccc3)N3CCC[C@@]23C1=O	-7%	-11%
O=C(c1ccco1)N1CCN(c2cc(=O)n(-c3ccc(Cl)cc3)c(=O)[nH]2)CC1	-6%	11%
COc1ccc(-c2[nH]ncc2CN(C)Cc2cccnc2)c(F)c1	-7%	i
Cc1ccc2nc(N3CCC(C(=O)N4CCN(c5cccc(C)c5C)CC4)CC3)[nH]c2c1	?	-29%
CCSc1nnc(-c2cc(Br)ccc2N=Cc2c(C)[nH]n(-c3ccccc3)c2=O)c(=O)[nH]1	-6%	i
COc1ccccc1CN1CCNC(=O)C1CC(=O)NCc1c(C)n[nH]c1C (stereo not given)	4%	-4%
O=C(O)c1c[nH]c2ccc(S(=O)(=O)N3CCOCC3)cc12	0%	-1%
Cc1ccc(NC(=O)N(Cc2c[nH]c3ccccc23)C2CCCCCC2)cc1C	10%	?
COc1ccc(-c2cn[nH]c2-c2ccc(O)cc2O)cc1OC	?	-19%

Not a hit list. About 0.86% of those tested had a hit in this group.
